Screening data deposited in PubChem by National Center for Advancing Translational Sciences (NCATS).
ClpP mod: qHTS Assay for Activators of ClpP | ATP-dependent Clp protease proteolytic subunit (Bacillus subtilis (strain 168)), P80244 | purified B. subtilis ClpP, FRET peptide cleavage, 20 min | Potency, µM (series often up to 57.5 µM), for inactives: at the highest dose activity change, negative = active | 340,000 tested, 1.9% active; active = well fitted falling curve with a large enough effect; inconclusive = small, poorly fitted or top-dose-only effect; inactive = no such curve, though single readings can be large or run the other way; also: potency is read from the fitted curve at half-maximal effect; the source files actives as falling curves though it sought activators and does not explain the sign; nearly all actives have a fitted effect of over 65% in size; many hits overshoot -100%
Target sequence (P80244 whole entry, looked up): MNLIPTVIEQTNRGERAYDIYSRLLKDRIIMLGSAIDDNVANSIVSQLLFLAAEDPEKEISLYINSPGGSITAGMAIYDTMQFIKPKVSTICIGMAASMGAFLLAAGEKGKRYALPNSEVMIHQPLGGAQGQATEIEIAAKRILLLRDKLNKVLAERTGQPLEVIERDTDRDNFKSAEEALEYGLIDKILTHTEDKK
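Buffer: 100 mM Tris/HCl pH8, 100 mM KCl, 0.05% low protease BSA, 2.5% glycerol, 0.01% Tween-20. ClpP 10 microg/mL final; 20 min RT; delta FRET normalized to ADEP and DMSO controls.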
gsp antagonist: qHTS for Antagonists of gsp, the Etiologic Mutation Responsible for Fibrous Dysplasia/McCune-Albright Syndrome: qHTS | gsp-mutant cells, cAMP HTRF, 30 min; control for the full effect not named in the record | Potency, µM (top dose mostly 76.9 µM), for the others: top-dose activity change, negative = inhibition, actives largely listed as inhibitors | 340,000 tested, 0.4% active | AID 624288, 2012; active = falling curve of any shape with a large fitted effect; inconclusive = falling curve, mostly with a smaller effect; inactive = flat or rising curve; cell line not stated here;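 also: intracellular cAMP measured with PDE inhibitor Ro 20-1724 present during compound exposure; potency is read from the fitted curve at half-maximal effect; % is scaled to controls: 0 for no effect and ±100 for the full control effect; nearly all actives have a fitted effect of over 65% in size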
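Cells, 2000/well, grown 16–24 h in DMEM 10% FBS with 0.5 mg/ml G418, then compounds plus […] (300 uM addition stock), 30 min at 37C. cAMP read by HTRF (cAMP-d2 and anti-cAMP antibody-K in lysis buffer) after 30 min RT.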
TRPV1 potentiator: HTS Assay for Compounds that Act as Potentiators of the Vanilloid Receptor 1. Transient receptor potential cation channel subfamily V member 1 (Homo sapiens), Q8NER1. TRPV1-expressing cells, Fluo-8 calcium influx, capsaicin EC20 potentiation; host cell line not named in the record; control for the full effect not named in the record. potentiation, % at 8.33 µM. 320,000 tested, 0.02% active. AID 540277, 2011; active means potentiation above 80%; inconclusive means 30% to 80%; inactive means below 30%; also: 0% is about no effect
Target sequence (Q8NER1 whole entry, looked up): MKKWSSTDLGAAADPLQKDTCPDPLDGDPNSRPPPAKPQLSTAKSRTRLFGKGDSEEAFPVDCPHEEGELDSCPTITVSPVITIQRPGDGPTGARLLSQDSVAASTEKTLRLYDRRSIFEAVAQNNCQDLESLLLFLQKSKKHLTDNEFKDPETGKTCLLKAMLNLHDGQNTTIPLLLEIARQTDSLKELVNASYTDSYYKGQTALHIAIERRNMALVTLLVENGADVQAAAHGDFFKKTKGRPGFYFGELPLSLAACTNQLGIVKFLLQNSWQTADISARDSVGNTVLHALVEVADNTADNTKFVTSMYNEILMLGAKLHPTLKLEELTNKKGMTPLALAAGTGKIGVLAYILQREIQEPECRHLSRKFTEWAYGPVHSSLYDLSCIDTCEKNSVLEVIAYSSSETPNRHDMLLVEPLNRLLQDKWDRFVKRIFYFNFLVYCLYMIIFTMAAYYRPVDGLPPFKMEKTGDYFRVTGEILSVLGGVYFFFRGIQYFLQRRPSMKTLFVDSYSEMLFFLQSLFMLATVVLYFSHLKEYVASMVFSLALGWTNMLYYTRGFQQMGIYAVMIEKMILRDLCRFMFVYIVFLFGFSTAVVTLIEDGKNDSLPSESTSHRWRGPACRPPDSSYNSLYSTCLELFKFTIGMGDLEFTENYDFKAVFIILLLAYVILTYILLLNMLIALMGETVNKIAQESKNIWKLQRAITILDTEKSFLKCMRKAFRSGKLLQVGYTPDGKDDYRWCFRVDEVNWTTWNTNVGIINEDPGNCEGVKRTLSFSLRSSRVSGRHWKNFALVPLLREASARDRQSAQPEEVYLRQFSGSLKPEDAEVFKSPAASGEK
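TRPV1-expressing cells were cultured overnight at 35.5C and loaded with Fluo-8 calcium dye for 40 to 90 min at room temperature. After a 10 s baseline, compound was added and calcium influx was read kinetically for 3 min (ex 480/em 520 nm).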
Sfp inh: qHTS Assay for Inhibitors of Bacillus subtilis Sfp phosphopantetheinyl transferase (PPTase); 310,000 tested, 3.5% active; Potency, µM, inactives show max response, negative = inhibition, actives largely listed as inhibitors; Biochemical Sfp PPTase activity, qHTS; 4'-phosphopantetheinyl transferase ffp (Bacillus subtilis), Q9F4F7; AID 1490, 2009; active = well fitted inhibition curve with a large enough effect; inconclusive = small, poorly fitted or top-dose-only effect, or another doubt; inactive = no such curve, though single readings can be large or run the other way;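 also: the enzyme is Sfp with the accession as filed and its product quenches rhodamine fluorescence; potency is read from the fitted curve at half-maximal effect; 0% = enzyme reaction without inhibitor and -100% = no enzyme wells; top concentration of the series not given in the record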
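Buffer: 50 mM Hepes-Na pH 7.6, 10 mM MgCl2, 0.01% Nonidet P-40, 0.01% BSA. Enzyme 15 nM, pre-exposed to compound 15 min; substrates then added and fluorescence change tracked over 30 min.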
gsp ag: qHTS for Agonist of gsp, the Etiologic Mutation Responsible for Fibrous Dysplasia/McCune-Albright Syndrome: qHTS | Potency, µM (series often up to 76.9 µM), inactives show at the highest dose activation (cAMP increase), hits mostly activators | 340,000 tested, 0.13% active | gsp mutant cells, cAMP HTRF, 30 min; control for the full effect not named in the record; active = well fitted activation curve with a large enough effect; inconclusive = small, poorly fitted or top-dose-only effect, or another doubt; inactive = no such curve, though single readings can be large or run the other way; cell line not stated here;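 also: phosphodiesterase inhibitor Ro 20-1724 added with compounds to block cAMP breakdown; potency is read from the fitted curve at half-maximal effect; nearly all actives have a fitted effect of over 60% in size; about a fifth of the inactives were tested at one dose only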
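Cells stably selected in G418 were plated at 2000/well, grown 16-24 hr, then given compounds in DMSO with the PDE inhibitor […] (300 uM solution added) for 30 min at 37C; cAMP was read by HTRF.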
Menin MLL FP FL: qHTS Assay for Inhibitors Targeting the Menin-MLL Interaction in MLL Related Leukemias: Competition With Fluorescein Labeled MLL-derived Peptide. AID 1766, 2009. FP activity change, % at 61.4 µM. 290,000 tested, under 10 active. Fluorescence polarization, fluorescein-MLL peptide displacement from menin; inconclusive = falling polarisation curve, or a change in total fluorescence; inactive = total fluorescence flat and polarisation flat or rising; no compound was filed as active; the % refers to the polarisation; negative = inhibition;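 also: % of control where 0% means no effect; inhibitors lower the polarisation; unlabelled MLL peptide was the positive control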
TRPML1 inh: qHTS for Inhibitors of the Human Mucolipin Transient Receptor Potential 1 (TRPML1); TRPML1-inducible cells, Ca2+ dye fluorescence, FDSS; hits give low values; inhibition of EC80 agonist-evoked calcium signal; activity change, negative = inhibition, % (concentration not given with the values); 390,000 tested, 0.02% active; AID 624415, 2012; in the data active means activity change below about -50%; inconclusive means about -30% to -50%; inactive means above about -30%;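 also: stimulus is agonist 54-4 at its EC80 concentration; % is scaled to controls: 0 for no effect and ±100 for the full control effect; compound concentration not given in the record; the text of the record puts the active cut at -80%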
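TRPML1-DL cells, Tet-induced overnight (~16 h, 37 °C) at 1,500 cells/well, were loaded with Ca8 no-wash dye plus quencher for 45-90 min at room temperature. Compounds were pinned during FDSS kinetic reading; agonist 54-4 at EC80 (4 uM final) then added.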
Numbers without * were called inactive; ? = inconclusive; · = not tested or not shown; & = joins results of further samples; [ ] = another dose, or the depositor's remark.

SMILES	ClpP mod	gsp antagonist	TRPV1 potentiator	Sfp inh	gsp ag	Menin MLL FP FL	TRPML1 inh
CN(Cc1ccccc1)C(=O)CN1C(=O)COc2ccc(S(=O)(=O)N3CCCC3)cc21	-0.1%	-9%	-2	18%	2%	2.6	0
COc1cc(/C=C\C(=O)NCc2ccc3c(c2)cc(C)n3C)cc(OC)c1OC	-6.4%	4%	20	8%	?	-0.9	12
Cc1cccc(CN2CCSc3sccc3C2=O)c1	·	·	-9	8%	0%[15.4 µM]	2.4	34
Cc1cc(C)nc(SCCn2c(N3CCC(C)CC3)nc3c2c(=O)n(C)c(=O)n3C)n1	·	·	2	3%	·	-0.7	·
CCCCOc1cccc(OCC(=O)Nc2nc3ccccc3[nH]2)c1	-7.0%	-1%	23	25%	14%	0.6	-18
CCCc1cc(=O)n2[nH]c(-c3ccc(Br)cc3)cc2n1	?	-3%	25	1%	5%	5.0	-4
Cc1ccccc1OC(=O)n1c(=S)oc2cc(Cl)ccc21	-1.3%	-6%	10	-23%	-28%	-2.4	-3
O=C(CN1CCN(S(=O)(=O)c2ccccc2)CC1)Nc1cccc(C(F)(F)F)c1	-0.1%	2%	-7	9%	-7%	1.1	5
CCN(CC)C(=O)CSc1nc(COc2ccccc2)nc2ccccc12	-1.9%	-4%	-9	-4%	22%	-1.4	-21
COc1ccc(CN2CCN(S(=O)(=O)c3ccccc3)CC2)c(OC)c1	0.3%&1.7%	-3%	27	-8%	1%	5.4	-1&24
Cc1ccccc1N=C1NC(=O)/C(=C/c2cccn2C)S1	-3.1%	-16%	6	3%	-7%	?	-10
Cc1noc(/C=C/N(C)C)c1S(=O)(=O)N1CCN(c2ccccc2)CC1	-1.6%	3%	·	7%	4%	3.6	-2
C(=C\c1ccc2ccccc2n1)/c1ccccc1	-28%&-9.6%	-10%	-13	?	-6%	0.3	6
S=c1nc(-c2ccccc2)[nH]c2ccc(Br)cc12	0.4%	-1%	2	2%	46%[15.4 µM]	0.4	-6
CCN1C(=O)[C@H]2[C@@H](c3ccc(SC4CCCCC4)c(OC)c3)N3CCCC[C@@]3(C(=O)OC)[C@H]2C1=O	-18%	-22%	-1	·	4%	·	23
Cc1ccc(CNC(=O)c2ccc(Cn3nc(C)cc3C)o2)cc1	1.3%	-6%	1	14%	11%	3.7	13
COc1cc2ncnc(NCc3ccccc3)c2cc1OC	1.0%	-5%	-16	-11%	9%	0.6	7
Nc1ncc2c(n1)-c1cc(Cl)ccc1SC2	·	4%	2	-3%	-3%[15.4 µM]	-2.4	1
Cc1nnc(SCC(=O)Nc2ccc3c(c2)OCO3)n(N)c1=O	·	0%	1	6%	23%	0.5	-6
CCn1c(-c2cc(-c3ccc(OC(C)C)cc3)nc3ccccc23)n[nH]c1=S	57%	-9%	-3	4%	-11%	-1.3	10
Cc1cccc(Cn2c(C(C)O)nc3ccccc32)c1 (stereo not given)	-2.3%	3%	-15	12%	-44%[inhibitor]	0.5	8
CCC(=O)N1CCc2cc(S(=O)(=O)NCCC(=O)N3CCN(Cc4ccccc4)CC3)ccc21	-1.9%	-6%	0	9%	8%	2.0	3
COc1ccc2cc(OCC(=O)NNC(=O)Nc3ccc(F)cc3)ccc2c1	?	0%	-2	-26%	13%	·	-17
C=C(C)C(=O)Nc1cccc(C2=NOC3(C2)C[C@H](C(N)=O)N(C(=O)COc2ccc(Cl)cc2)C3)c1 (stereo not given in full)	-0.9%	-3%	26	4%	·	-1.0	1
COc1cccc(-c2cn(C[C@H]3CC[C@@H]([C@@H]4CC[C@H](Cn5cc(-c6cccc(OC)c6)nn5)O4)O3)nn2)c1	-0.9%	?	22	0%	12%	-4.1	-5
COc1cc2c(cc1NS(=O)(=O)N1CCCCC1)oc1ccccc12	32µM*	6%	23	-6%	16%	-0.9	1
O=C1NC2(CCCCC2)C(=O)N1CCN1C(=O)c2ccccc2C1=O	-0.2%	3%	-1	13%	-2%	2.5	-24
Cc1oc2cc3oc(=O)c(CCC(=O)N[C@H](C(=O)O)C(C)C)c(C)c3cc2c1C	-0.9%	0%	1	6%	4%[15.4 µM]	-2.8	0
Cc1cc(C(=O)CSc2nnc(-c3cccnc3)n2-c2ccccc2F)c(C)n1CC1CCCO1 (stereo not given)	-2.6%	-11%	-8	-1%	-1%	5.9	-12
O=C(Cn1cc(S(=O)(=O)Cc2ccccc2)c2ccccc21)N1CCOCC1	0.6%	2%	0	-30%	-20%	·	-21
O=C(CN1C(=O)NC2(CCCCCCC2)C1=O)Nc1ccc(Br)cc1Br	0.4%	-5%	-13	·	-5%	·	30
CC(=O)n1ccnc1	0.4%	1%	24	18%	·	-0.3	-8
O=C(NCC1CCN(Cc2ccccc2F)CC1)C1CCCN(c2ncnc3c2nc2n3CCCCC2)C1 (stereo not given)	1.9%	-3%	8	6%	22%	-3.5	-12
Cc1cccc(-c2nnc3n2N=C(c2ccccc2)CS3)c1	-1.9%	-4%	5	-4%	-63%[inhibitor]	2.5	8
Cc1cc2c(c(=O)n1CCc1ccccc1)C(C(C)C)C(C#N)=C(N)O2 (stereo not given)	-2.7%	13%	5	5%	-6%	1.2	-7
COCCSc1ccccc1C(=O)Nc1ccncc1	-1.3%	-2%	-2	-5%	-6%	-0.4	-5
CCOC(=O)c1cnn(-c2ccccc2)c1-n1cccc1C(=O)C(=O)Nc1ccc(F)cc1	0.9%	-8%	-30	9%	-6%	0.5	-9
COc1ccc(C(=O)NN2C(=O)C3CCC(C)(C2=O)C3(C)C)cc1 (stereo not given)	-2.4%	6%	8	3%	?	-0.3	1
COc1ccc(S(=O)(=O)N2CCc3ccccc32)cc1C(=O)NCCc1ccccn1	0.8%	-7%	-1	-8%	0%[15.4 µM]	-0.5	6
CC(=O)Nc1ccc(NC2=C(Cl)C(=O)c3ccccc3C2=O)cc1	·	-14%	-6	-4%	?	-6.0	0
CCOCC(=O)Nc1cc(-c2cn3cccnc3n2)ccc1C	9.5%	8%	-34	-6%	?	6.0	-5
O=C(O)Cc1csc(NC(=O)CSc2cccc(C(=O)O)n2)n1	·	7%	2	-27%	?	-4.1	5
CCn1c(CCc2nc3ccccc3[nH]2)n[nH]c1=S	·	-13%	-23	3%	9%[15.4 µM]	-2.7	-12
Cc1cc(C(=O)CSc2n[nH]c(N)n2)c(C)n1-c1ccc(F)cc1	-0.5%	-1%	-27	-10%	4%	-1.3	-2
O=C(NCc1ccccn1)c1coc(=O)c(Br)c1	16µM*	10%	-2	?	13%	-0.6	0
COc1ccc(OC)c(Nc2nc(-c3sc(NC(=O)c4ccccc4)nc3C)cs2)c1	·	·	-5	-10%	·	2.5	·
Cc1cccc(N2CC(O)(c3cccs3)[N+]3=C2CCCC3)c1C (stereo not given)	·	13%	-25	2%	13%[15.4 µM]	-3.0	1
COC(=O)Nc1ccc(S(=O)(=O)N2CCCC(C(=O)NC3CCCCC3)C2)cc1 (stereo not given)	·	-4%	-13	11%	-1%[15.4 µM]	-0.8	-1
Cc1ccc(C)c(S(=O)(=O)NCC(=O)N2CCCC2)c1	-0.6%	10%	15	9%	-1%[15.4 µM]	1.3	50
O=C(CCN1C(=O)c2ccc([N+](=O)[O-])cc2C1=O)Nc1ccccc1C(=O)O	·	3%	8	-13%	-9%[15.4 µM]	3.6	5
CN(C)C(=O)CSc1nnc(-c2cnccn2)n1C	-1.2%	8%	8	-16%	20%	0.2	-16
CCOC(=O)N1CCN(Cc2nc(N)nc(Nc3ccc(C)cc3)n2)CC1	0.6%	-1%	-5	13%	4%	0.2	0
Cc1cccc(NC(=O)CN2CCN(C(=O)c3oc4c(Cl)cccc4c3C)CC2)c1C	1.4%	?	8	·	-2%	·	26
C[C@@H](OC(=O)c1[nH]cnc1C(=O)N1CCN(C(=O)OC(C)(C)C)CC1)c1ccccc1	0.1%	-2%	·	·	·	·	-7
COC(=O)C1=C(C(=O)OC)C(c2ccc(OC)c(OC)c2)c2sc(=O)[nH]c2S1 (stereo not given)	·	-13%	3	20µM*	2%[15.4 µM]	3.0	9
CC(NC(=O)C1CCN(C(=O)Nc2ccccc2)CC1)c1ccccc1 (stereo not given)	·	6%	-2	·	-6%[15.4 µM]	·	1
CCN1C(=O)[C@H]2[C@H]3CN=C(SCc4ccccc4)N3[C@@](C)(C(=O)OC)[C@H]2C1=O	0.2%	2%	·	·	·	·	-11
CCN(CC(=O)Nc1cccc(OC)c1)CC(=O)Nc1ccccc1C	·	9%	14	6%	-1%[15.4 µM]	0.8	15
O=C1c2ccccc2C(=O)N1/N=C/c1ccc(O)c(O)c1	·	-7%	-7	-30%	27%[15.4 µM]	1.1	6
COc1cc(C(=O)NC2CC(C)(C)Cc3c2cnn3-c2ccccc2)cc(OC)c1OC (stereo not given)	·	-10%	-1	28%	-43%[15.4 µM]	-6.4	19
CCOC(=O)/C=C/c1nc(C(=O)OCC)c(C)c(=O)[nH]1	-2.5%	-1%	4	13%	-23%	-0.3	11
COc1ccc(-n2ncc3c(=O)n(CC(=O)N4c5ccccc5CC4C)cnc32)cc1 (stereo not given)	-19%	-5%	-4	11%	?	3.3	4
CCOC(=O)c1c(C)[nH]c(C(=O)COC(=O)c2cccnc2Cl)c1C	-1.8%	-17%	·	·	?	·	9
